Assay outcomes: PubChem, National Center for Advancing Translational Sciences (NCATS)
SARS PLP yeast = SARS-CoV PLP inhibition in yeast; S. cerevisiae expressing SARS-CoV PLpro, growth rescue; control for the full effect not named in the record; Potency, µM (top dose mostly 32.9 µM), without a hit: at the highest dose activity, positive = growth rescue; actives 0.19% (n = 330,000); note: 0% is about no effect; nearly all actives have a fitted effect of over 55% in size; growth read by luminescence after 48 h
RE007 growth inh = less growth of the S. pombe RE007 Vpr strain | S. pombe RE007 Vpr strain, BacTiter-Glo ATP luminescence, 24 h; control for the full effect not named in the record | Potency, µM (highest dose often 92.2 µM), inactives show top-dose activity change, negative = less growth | actives 0.21% (n = 360,000); active = well fitted falling curve with a large enough effect; inconclusive = small, poorly fitted or top-dose-only effect; inactive = no such curve, though single readings can be large or run the other way;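 note: % is set by controls: 0 for no effect and ±100 for the full control effect; nearly all actives have a fitted effect of over 50% in size; the assay follows cell death caused by Vpr and the record does not say whether a fall means rescue or toxicity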
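Fission yeast RE007 carrying one integrated HIV-1 vpr copy, seeded at OD 0.01 in PMG+AL medium with 23 nL pinned compound. Grown 24 h at 30 degrees; viability read by BacTiter-Glo luminescence after 5 min.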
Marburg entry inh = inhibitors of Marburg virus binding or cell entry. Marburg virus pseudotyped entry inhibition, cell reporter; control for the full effect not named in the record; about a third of the inactives were read at about 46 µM. Potency, µM (titrated, usually from 37.8 µM), inactives show top-dose activity change, negative = inhibition, actives largely listed as inhibitors. actives 1.8% (n = 300,000); active = well fitted inhibition curve with a large enough effect; inconclusive = small, poorly fitted or top-dose-only effect, or effect the other way; inactive = flat fitted curve, though single readings scatter; tested in HEK293 cells; about a fifth of its hits are not listed in these tables; note: % is set by controls: 0 for no effect and ±100 for the full control effect; luciferase read-out
LASV entry inh = inhibitors of Lassa virus binding or cell entry. AID 540256. Potency, µM (doses to about 37.9 µM), inactives show top-dose activity change, negative = inhibition, hits mostly inhibitors. actives 1.2% (n = 300,000). Lassa virus pseudotype entry inhibition, cell reporter; control for the full effect not named in the record; active means well fitted inhibition curve with a large enough effect; inconclusive means small, poorly fitted or top-dose-only effect, or effect the other way; inactive means flat fitted curve, though single readings scatter; tested in HEK293 cells; note: % is set by controls: 0 for no effect and ±100 for the full control effect; nearly all actives have a fitted effect of over 50% in size; luciferase read-out
Cruzain noTriton = inhibitors of Trypanosoma cruzi cruzain without detergent; P25779; Potency, µM, for the others: max response, negative = inhibition, hits mostly inhibitors; AID 1476; purified cruzain, Z-FR-AMC fluorescence, no detergent; actives 2.3% (n = 200,000); active = well fitted curve in the direction sought with a large enough effect; inconclusive = small, poorly fitted or top-dose-only effect, or another doubt; inactive = no such curve, though single readings can be large; an effect the other way counts as inactive or inconclusive;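 note: plate controls were enzyme without inhibitor for no effect and buffer without enzyme for full effect; nearly all actives have a fitted effect of over 40% in size; top concentration of the series not given in the record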
Target sequence (P25779 123-467 limits assumed): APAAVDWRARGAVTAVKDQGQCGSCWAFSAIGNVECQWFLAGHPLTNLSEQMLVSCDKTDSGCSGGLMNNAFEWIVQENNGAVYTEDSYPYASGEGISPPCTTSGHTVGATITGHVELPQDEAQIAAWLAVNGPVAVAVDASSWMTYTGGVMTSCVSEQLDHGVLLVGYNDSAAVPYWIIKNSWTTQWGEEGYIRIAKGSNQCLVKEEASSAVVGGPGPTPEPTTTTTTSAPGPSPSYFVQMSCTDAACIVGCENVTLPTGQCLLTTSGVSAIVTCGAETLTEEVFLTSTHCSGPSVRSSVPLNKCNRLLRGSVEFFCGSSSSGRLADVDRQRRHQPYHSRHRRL
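Purified cruzain at 1.5 nM, pre-incubated 15 min with compound at room temperature in 100 mM sodium acetate pH 5.5, 5 mM DTT, 0.00005% Triton X-100. Reaction started with 2 uM Z-FR-AMC; AMC fluorescence increase over 60 s gives rate.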
Cruzain inh Det = inhibitors of Trypanosoma cruzi cruzain with detergent; P25779; purified cruzain, Z-FR-AMC fluorescence, 0.01% Triton; Potency, µM, inactives show max response, negative = inhibition, usual class: inhibitors; actives 0.43% (n = 200,000); active = well fitted curve in the direction sought with a large enough effect; inconclusive = small, poorly fitted or top-dose-only effect, or another doubt; inactive = no such curve, though single readings can be large; an effect the other way counts as inactive or inconclusive;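 note: plate controls were neutral wells for no effect and buffer without enzyme for full effect; nearly all actives have a fitted effect of over 40% in size; top concentration of the series not given in the record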
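Cruzain (1.5 nM) preincubated 15 min at RT with compound in 100 mM sodium acetate pH 5.5, 5 mM DTT, 0.01% Triton X-100. Reaction started with 2 uM Z-FR-AMC; AMC fluorescence (ex 360/em 450 nm) change over 60 s gave rate.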
StopGo reporter = lowers the luciferase signal of an FMDV 2A StopGo reporter; human cells with a luciferase reporter of 2A StopGo recoding; control for the full effect not named in the record; Potency, µM (titrated, usually from 57.9 µM), for the others: at the top dose signal change, negative = less light; actives 1.2% (n = 410,000); AID 1159524; active = well fitted falling curve with a large enough effect; inconclusive = small, poorly fitted or top-dose-only effect; inactive = no such curve, though single readings can be large or run the other way; tested in HEK293T cells; note: % is set by controls: 0 for no effect and ±100 for the full control effect; nearly all actives have a fitted effect of over 45% in size; luciferase light after 4 h
NS1 function inh = influenza NS1 inhibition | actives 0.4% (n = 270,000) | AID 2326 | S. cerevisiae slowed by influenza A NS1, growth recovery by OD600 | Potency, µM (highest dose often 46.1 µM), inactives show at the top dose activity, positive = more growth; note: actives are rising curves; nearly all actives have a fitted effect of over 50% in size
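A cell-based growth assay was used: compounds that relieve NS1-induced slow growth of budding yeast raise OD600. Assay medium was yeast nitrogen base with ammonium sulphate and -URA supplement, pH 6.0, with 2% galactose.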
* = called active by the depositor; ? = inconclusive; · = not tested or not shown; & = joins results of further samples; [ ] = another dose, or the depositor's remark. Unless noted, calls come from the whole dose curve; as a rule, active means well fitted rising curve with a large enough effect; inconclusive means small, poorly fitted or top-dose-only effect; inactive means no such curve, though single readings can be large or run the other way. Potency is the fitted concentration of half-maximal effect.

cpd	SMILES	SARS PLP yeast	RE007 growth inh	Marburg entry inh	LASV entry inh	Cruzain noTriton	Cruzain inh Det	StopGo reporter	NS1 function inh
1	O=C(C1=C(O)C(=O)N(CCN2CCOCC2)C1c1ccc([N+](=O)[O-])cc1)c1cccs1 (stereo not given)	-1%	-20%	-5%[46.1 µM]	-2%[46.1 µM]	·	·	1%	4%
2	Cc1cc(NC(=O)CSc2nnc(Cn3c(=O)sc4ccccc43)n2-c2ccccc2C)no1	10%	-4%	·	·	17%	-0.9%	1%	-39%
3	Cc1ccc(C)n1-c1cc([N+](=O)[O-])ccc1-n1ccnc1	-1%	-5%	?	-4%[46.1 µM]	·	·	-5%	-1%
4	CC(/C=N/NC(=O)c1ccco1)=C\c1ccccc1	-12%	?	?	?	·	·	3%	·
5	CCc1ccc(C(=O)OCC(=O)NCCNC(=O)COC(=O)c2ccc(CC)cc2)cc1	-2%	0%	13%	-3%	·	·	-8%	6%
6	CCOCc1nnc(NC(C)=O)s1	1%	36%	7%	-2%	-10%	0.1%	30%	12%
7	COc1cccc(OC)c1OC(=O)c1cnccn1	-3%	17%	10%[46.1 µM]	·	·	·	-7%	4%
8	Cc1ccc(C2=NC(c3ccc(F)cc3)=Nc3ccc(C)cc3N2)cc1	·	·	5%[46.1 µM]	16%[46.1 µM]	25µM*	-0.6%	-7%	·
9	Cc1cccn2c(=O)nc(SCC(=O)NCc3ccc4c(c3)OCO4)nc12	0%	12%	0%[46.1 µM]	-2%	·	·	8%	·
10	COc1ccc(NC(=O)COCc2cc(-c3ccc4c(c3)OCO4)on2)cc1	·	·	·	7%[46.1 µM]	2%	-1.6%	-14%	·
11	COCC(C)NS(=O)(=O)c1ccc(NC(=O)C(Cc2ccccc2)NC(N)=O)cc1 (stereo not given)	6%	-3%	1%[46.1 µM]	6%	7%	4.1%	-13%	2%
12	CC1(O)C(=O)C=C2C=C(c3ccc(C#N)cc3)OC=C2C1=O (stereo not given)	·	·	7%&7%[14.2 µM]	?	0%	-2.4%	·	·
13	COc1ccc(NC(=O)CSc2oc(-c3ccc(C)cc3)nc2S(=O)(=O)c2ccc(C)cc2)c(OC)c1	·	·	-3%[46.1 µM]	?	-3%	-0.2%	7%	·
14	CN(C)c1ccc2c(=O)[nH][nH]c(=O)c2c1	-2%	2%	0%[46.1 µM]	-18%	·	·	8%	·
15	COc1ccc(-c2nnc(SCCOc3ccccc3C)o2)cc1OC	·	·	?	2%[46.1 µM]	10%	-2.5%	-11%	·
16	COC(CNC(=O)c1ccc2nc3ccccc3c(=O)n2c1)OC	0%	4%	13%[46.1 µM]	-1%[46.1 µM]	·	·	10%	-4%
17	O=C(NNC(=O)c1cccnc1SCc1cccc([N+](=O)[O-])c1)c1cccnc1	-20%	-7%	-18%	-1%	-9%	-2.1%	0%	7%
18	COc1ccc(OC)c(NC(=O)c2cccc(Cn3cc(Br)c([N+](=O)[O-])n3)c2)c1	29%	·	?	?	-28%	-3.6%	-11%	?
19	Cc1ccc(-n2[nH]c(C)c(CCC#N)c2=O)cc1	-11%	-1%	0%	-1%	-16%	-1.7%	-5%	12%
20	C#CCOCCOCCOCCNc1nc(N2CCN(C(=O)[C@H](Cc3ccc(O)cc3)n3cc(C(N)CC(C)C)nn3)CC2)nc(N2CCN(C(=O)[C@H](CCC(=O)O)n3cc(C(N)[C@H](C)CC)nn3)CC2)n1 (stereo not given in full)	0%	6%	·	·	·	·	44%[activator]	9%
21	Cc1cccc(C(=O)Nc2oc(-c3ccccc3)cc2C#N)c1	2%	16%	1%[46.1 µM]	-17%	-8%	0.6%	-12%	7%
22	O=C(Cc1ccc(-n2cccc2)cc1)NCc1ccccc1Cl	-5%	3%	?	?	-6%	3.3%	-11%	-20%
23	S=c1[nH]nc(CNc2ccc(Cl)cc2)n1Cc1ccccc1	0%	0%	8%[46.1 µM]	-11%	·	·	3%	11%
24	Cn1c(=O)n(C)c2cc(NS(=O)(=O)c3ccc4c(c3)CCCC4)ccc21	2%	3%	?	-5%	?	-6.5%	?	-14%
25	CC(C)Oc1ccc(CN2CCc3nc(Nc4ccc5c(c4)OCCO5)ncc3C2)cc1	·	·	·	-1%[46.1 µM]	-7%	-4.7%	-28%	·

In the list so far, these contain two or more sulfur atoms.
cpd	SMILES	SARS PLP yeast	RE007 growth inh	Marburg entry inh	LASV entry inh	Cruzain noTriton	Cruzain inh Det	StopGo reporter	NS1 function inh
2	Cc1cc(NC(=O)CSc2nnc(Cn3c(=O)sc4ccccc43)n2-c2ccccc2C)no1	10%	-4%	·	·	17%	-0.9%	1%	-39%
13	COc1ccc(NC(=O)CSc2oc(-c3ccc(C)cc3)nc2S(=O)(=O)c2ccc(C)cc2)c(OC)c1	·	·	-3%[46.1 µM]	?	-3%	-0.2%	7%	·

(next part)
cpd	SMILES	SARS PLP yeast	RE007 growth inh	Marburg entry inh	LASV entry inh	Cruzain noTriton	Cruzain inh Det	StopGo reporter	NS1 function inh
26	CCOC(=O)c1c(NC(=O)CSc2nnc(Cc3ccccc3)o2)sc(C)c1C	-19%	-17%	-20%	3%	-6%	-8.9%	-26%	-18%
27	CCCS(=O)(=O)N1CCC(n2c(C)nc3cccnc32)CC1	·	·	·	6%[46.1 µM]	-5%	1.5%	-15%	·
28	Cc1cccc(C(=O)NNC(=O)c2ccccc2O)c1	-3%	6%	·	·	·	·	61%[activator]	-17%
29	O=C(NCCCN1CCN(c2ccc(F)cc2)CC1)c1cc2c(Cl)nc3ccccc3c2s1	·	·	3%[46.1 µM]	12%[46.1 µM]	4%	1.8%	?	·
30	Cc1nn(CC(=O)NCCCc2ccccc2)c(=O)c2cccn12	-1%	-7%	·	·	·	·	-2%	-8%
31	Cc1nc(SCC2(C)CC2(Cl)Cl)n[nH]1 (stereo not given)	-6%	-23%	-3%[46.1 µM]	7%[46.1 µM]	·	·	4%	·
32	CC(C)(C)Nc1nc(OCC(F)(F)F)nc(OCC(F)(F)F)n1	0%	21%	-7%	0%	-5%	4.7%	19%	-1%
33	N#C/C(=C\c1ccc(Br)cc1)c1nc(-c2cc3cc(Br)ccc3oc2=O)cs1	·	·	·	-3%[46.1 µM]	4%	-1.0%	1%	·
34	COC(=O)C(C)Sc1nnc(-c2ccncc2)o1 (stereo not given)	-1%	-8%	?	-13%	3%	2.9%	-13%	11%
35	O=C1NC(=Nc2ccccc2)SC1Cc1ccccc1 (stereo not given)	1%	-1%	?	-28%	·	·	29%	12%
36	Cc1ccc(-n2c(SCC(=O)NCc3ccc4c(c3)OCO4)nnc2-c2cccnc2)c(C)c1	-7%	12%	-3%	-27%	0%	-1.5%	-24%	-14%
37	CCn1c(=O)c([N+](=O)[O-])c(NCC2CCCO2)c2ccccc21 (stereo not given)	-1%	-5%	-3%[46.1 µM]	-20%	·	·	-4%	-2%
38	Cc1cccc(Cn2nc(C(C)(C)C)cc2C(=O)Nc2ccc(F)cc2)c1	-7%	14%	?	?	·	·	?	-9%
39	CNS(=O)(=O)c1cn(CC(=O)N2CCN(c3cccc(C)c3C)CC2)cc1S(=O)(=O)NC	·	·	·	-20%[46.1 µM]	20%	-4.4%	-15%	·
40	O=C(NCC1CCCO1)c1cc2nc(-c3ccco3)cc(C(F)(F)Cl)n2n1 (stereo not given)	5%	13%	·	·	·	·	-16%	-3%
41	Cc1cc(C)nc(SCc2cn3c(C)cccc3n2)n1	-1%	-11%	-4%	-6%	·	·	14%	-1%
42	CSCCC(NC(=O)c1ccco1)C(=O)Nc1ccc(C)cn1 (stereo not given)	-1%	-4%	?	?	·	·	29%	·
43	CCOc1cc(S(=O)(=O)n2ccc(C)n2)ccc1Br	-5%	-1%	?	12%[46.1 µM]	·	·	5%	·
44	CCc1nn2c(=O)cc(COC(=O)CNC(=O)c3ccccc3)nc2s1	·	·	·	4%[46.1 µM]	-9%	-4.2%	-11%	·
45	CC(=O)C1=C(c2ccc(Cl)c(Cl)c2)N(C(C)=O)n2c(C)nnc2S1	·	·	·	?	?	-8.7%	?	·
46	O=S(=O)(c1ccc(S(=O)(=O)N2CCN3CCCC3C2)cc1)N1CCCC1 (stereo not given)	0%	1%	2%	-11%	-1%	1.6%	·	1%
47	COc1ccc(CC(=O)Nc2c(C(=O)Nc3ccc(F)cc3)oc3ccccc23)cc1OC	·	·	14%[46.1 µM]	13%[46.1 µM]	-5%	1.6%	-12%	·
48	Cc1ccc(-c2nnc(CSc3nc4cc5c(cc4cc3C)OCO5)o2)cc1	4%	0%	?	?	-28%	-8.3%	7%	-5%
49	COc1ccc(-n2c(CN3CCOCC3)nc3ccc([N+](=O)[O-])cc3c2=O)c(OC)c1	1%	-1%	19%[46.1 µM]	30%[46.1 µM]	·	·	-7%	16%
50	O=C1N2CCSC2=NC1(Nc1nccs1)C(F)(F)F (stereo not given)	7%	1%	14%	3%	-5%	1.4%	·	5%
51	COc1cc(NC(=O)c2ccco2)c(OC)cc1NC(=O)Nc1ccccc1Cl	2%	-16%	6%	8%	5%	-1.3%	·	2%
52	COC(=O)c1ccc2c(c1)N(Cc1cc(C)ccc1C)C(=O)c1ccccc1S2=O (stereo not given)	9%	·	21%	-3%	0%	-2.7%	·	-7%
53	Cc1cc(C)nc(SCc2ccc([N+](=O)[O-])cc2)n1	-1%	-19%	?	21%[46.1 µM]	·	·	11%	-4%
54	CC(=O)NCCC1CCCCN1Cc1nc(Cc2cccc(C(F)(F)F)c2)no1 (stereo not given)	1%	-12%	?	19%[46.1 µM]	·	·	-6%	-3%
